# RecA intein inh = Mtb RecA intein splicing inhibitors, primary screen, biochemical, fluorescence, HTS | cell-free RecA intein splicing | 290,000 tested, 0.75% active | inhibition, %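 (about 9 µM by stock and volumes)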; in the data active = inhibition above about 30%; inconclusive = no clear call, values can overlap the other calls;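 note: 0% = vehicle wells and 100% = reference inhibitor control wells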
# Target sequence (P9WHJ3 whole entry, looked up): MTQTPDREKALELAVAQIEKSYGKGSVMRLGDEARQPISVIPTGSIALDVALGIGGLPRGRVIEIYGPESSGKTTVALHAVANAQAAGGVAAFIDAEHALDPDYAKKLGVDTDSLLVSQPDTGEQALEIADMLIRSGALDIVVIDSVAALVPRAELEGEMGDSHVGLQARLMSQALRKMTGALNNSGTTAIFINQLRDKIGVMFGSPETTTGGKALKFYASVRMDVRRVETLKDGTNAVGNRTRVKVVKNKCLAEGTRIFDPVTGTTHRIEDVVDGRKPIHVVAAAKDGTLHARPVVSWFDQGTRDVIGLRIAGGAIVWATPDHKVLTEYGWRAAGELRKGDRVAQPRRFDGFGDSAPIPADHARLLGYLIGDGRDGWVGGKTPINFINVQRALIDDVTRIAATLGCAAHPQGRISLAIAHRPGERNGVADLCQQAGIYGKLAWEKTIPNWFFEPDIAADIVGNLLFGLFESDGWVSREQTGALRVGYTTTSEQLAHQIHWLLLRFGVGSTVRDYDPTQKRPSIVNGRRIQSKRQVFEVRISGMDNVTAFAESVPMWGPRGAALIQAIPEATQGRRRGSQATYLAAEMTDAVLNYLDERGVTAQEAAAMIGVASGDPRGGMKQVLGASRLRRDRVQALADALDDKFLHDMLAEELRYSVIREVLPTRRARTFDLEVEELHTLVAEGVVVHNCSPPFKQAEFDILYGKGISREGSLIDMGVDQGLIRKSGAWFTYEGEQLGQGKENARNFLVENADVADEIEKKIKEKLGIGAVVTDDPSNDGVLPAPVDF
# YopH inh = YopH tyrosine phosphatase inhibitors, primary screen, biochemical, fluorescence Ex485/Em525 | YopH tyrosine phosphatase [Yersinia enterocolitica] | inhibition, %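 (about 10 µM by stock and volumes)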 | 140,000 tested, 0.16% active;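 active = inhibition of 50% or more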;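 note: controls were vehicle for no effect and minimum signal wells for full effect; inactives centre near -20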
# Mtb growth = M. tuberculosis H37Rv growth inhibitors, H37Rv strain (AID 1626) | M. tuberculosis H37Rv growth inhibition; higher % means a stronger effect | inhibition, % at 10 µM, or IC50 in µM where a hit was titrated | 220,000 tested, 0.95% active;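 active = confirmed in a dose series; inconclusive = inhibition above 80% but not taken into the dose series; inactive = below 80% or under 30% at every dose of the series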;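 note: bacteria incubated seven days before Alamar blue readout; 0% = bacteria only wells and 100% = bacteria with antibiotic wells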
# Arbovirus inh = antivirals against arbovirus infection, primary screen, cell-based, full library, 10K replicate subset | AID 1251, 2008 | inhibition, % at 10 µM | arbovirus infection cell-based antiviral screen | 200,000 tested, 0.37% active;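 active = inhibition from about 30%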;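 note: bluetongue infection of BSR cells; cell survival read as ATP light after 72 h; 0% = infected wells without compound and 100% = uninfected wells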
# Mtb bLac sens = beta-lactam sensitization of Mtb H37Rv, H37Rv; M. tuberculosis H37Rv growth with meropenem, percent inhibition; hits of this screen are not shown here; inhibition, % at 25 µM; 330,000 tested, 0.27% active; AID 434955, 2010;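 active = about 74% or more and at least 40 points above the plate without the antibiotic, then above 30% in a dose series; inconclusive = first-round hits that could not be retested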;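 note: growth measured after seven days incubation then overnight dye step; 0% = bacteria only wells and 100% = bacteria with antibiotic; twin plates without the antibiotic show which effects depend on it; some results filed as inactive read as strong as hits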
# Arbovirus inh repeat = also measured in Arbovirus inh; calls as there; inhibition, %; measured here: 10K subset replicate screen; many hits read low in the repeat;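 first of two repeat runs on a subset; 0% = infected and 100% = uninfected wells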
# Starred values were filed as active, the others as inactive; ? = inconclusive; · = no result given. This is a subset; the hit share may differ from the screen's.
SMILES,RecA intein inh,YopH inh,Mtb growth,Arbovirus inh,Mtb bLac sens,others
Cc1c(NC(=O)c2ccc(Cl)s2)c(=O)n(-c2ccccc2)n1C,-2.8,2,8%,6,-5,
O=C(NCCCn1ccnc1)c1sc2cccc(F)c2c1Cl,0.3,-11,6%,-1,-6,
O=C1CCCN1Cc1ncnn1-c1ccccc1,-0.6,-19,-1%,2,9,
CC(=O)NC(N(C#N)c1nc(Cl)nc(N(C)C)n1)C(Cl)(Cl)Cl (stereo not given),0.2,·,·,·,-1,
Cc1ccc(S(=O)(=O)N(C)C)cc1NC(=O)CCNC(=O)c1ccco1,3.1,·,·,·,-5,
CCC(C)N(C(=O)COc1ccc(Br)cc1C=O)C1CCS(=O)(=O)C1 (stereo not given),-1.9,·,·,·,-4,
CCN(CC(=O)Nc1c(F)cccc1F)C(=O)c1cc([N+](=O)[O-])ccc1N1CCOCC1,0.1,·,·,·,0,
O=c1c2nccnc2[nH]c(=S)n1Cc1ccccc1Cl,-2.2,·,5%,9,60,
Cn1c(-c2ccccc2)cnc1SCc1nc2ccccc2c(=O)[nH]1,3.1,6,0%,0,6,
Cc1c(Cl)cccc1S(=O)(=O)Nc1ccnn1C,0.4,·,-15%,·,-5,
Cc1nc2cc(C(F)(F)F)ccc2n1C,1.6,·,0%,4,-5,
OCCNCC(O)Cn1c2ccccc2c2ccccc21 (stereo not given),-2.1,·,3%,-13,-6,
CCCCN(C)CCNC(=O)C(NC(=O)C1CCC(C)CC1)C(C)C (stereo not given),0.0,·,-3%,-3,-4,
O=c1c2ccccc2ncn1-c1ccc(Br)cc1[N+](=O)[O-],-4.3,·,·,·,-6,
O=C(Nc1ccccc1F)Oc1cccc(OC(=O)Nc2ccccc2F)c1,-2.7,·,-13%,·,-5,
CCOP(=O)(OCC)C(NC(=O)Nc1ccc(C)cc1)C(N)=O (stereo not given),0.4,·,-3%,·,-1,
S=C(Nc1ccc(Br)cc1)Nc1ccc2c(c1)OCCO2,4.1,·,·,·,-11,
COc1ccc(NC(=O)C2CC(=O)N(c3cc(C)ccc3C)C2)cc1 (stereo not given),-1.6,-40,-5%,4,-7,
CCOC(=O)c1c(NC(=O)CSc2nnc3c(Cl)cc(Cl)cn23)sc2c1CCC2,3.6,-20,8%,0,2,
O=C(Nc1ccccc1Cl)NC1CCCCCCC1,-0.5,·,·,·,7,
CCOc1ccc(-n2ccnc(SCC(=O)Nc3cccc(OC)c3)c2=O)cc1,-0.7,·,·,·,-1,
COc1ccc(C)cc1NC(=O)CCC(=O)Nc1nnc(C2CCCCC2)s1,-2.6,·,·,·,0,
CNC(=S)NNc1nc(N2CCOCC2)nc(N2CCOCC2)n1,-5.0,·,11%,0,-6,
O=c1c2ccccc2nnn1CSc1nc2cc(Cl)ccc2c(=O)n1Cc1ccco1,·,-7,-1%,·,?,
O=S(=O)(CCN1CCOCC1)c1ccc(OC(F)(F)F)cc1,-0.2,·,·,·,5,
NC(N)=Nc1nc(-c2ccccc2)c2cc(Cl)ccc2n1,6.9,·,·,·,96,
CN(C)CCCNc1ncnc2c1cnn2-c1ccccc1,0.1,-4,12%,0,-9,Arbovirus inh repeat=-5
O=C(CSc1nnc(-c2ccco2)n1Cc1ccccc1)NCc1ccccc1,3.0,-22,1%,2,-13,
CCCCCCNC(=O)Nc1ccccc1,0.6,-48,9%,-7,0,
CC(=O)c1cccc(NC(=S)NC(=O)c2ccc(Cl)cc2)c1,1.0,-26,6%,-10,-2,
O=C(CCS(=O)(=O)c1ccccc1)Nc1ccc(Cl)cn1,-0.1,·,·,·,1,
O=C(Nc1ccccc1F)c1ccc(S(=O)(=O)NCC2CCCO2)cc1 (stereo not given),-0.1,-1,-9%,4,5,
CCC1CN(C(=O)N2CCC(C(=O)NCc3ccc(C)o3)CC2)c2ccccc2O1 (stereo not given),-2.0,·,·,·,-3,
COc1ccc(/C=C(\C#N)C(=O)NCc2cccnc2)cc1OC,·,·,-3%,-3,2,
CCOc1ccccc1C1CC(=O)Nc2cc(OC)c(OC)cc21 (stereo not given),-0.6,·,·,·,3,
O=C(N/N=C/c1ccc([N+](=O)[O-])o1)c1sc2ccccc2c1Cl,6.3,·,?,·,100,
O=C(N/N=C/c1c(O)ccc2ccccc12)c1ccc[n+](CCO)c1,7.1,·,-3%,-3,-3,
CC(=O)c1ccc(OCc2cc(C(=O)NCCN3CCCC(O)C3)no2)cc1 (stereo not given),-1.7,·,·,·,2,
O=C1CC(c2ccccc2)CC(O)=C1C=NCc1ccc(Cl)cc1 (stereo not given),-1.4,-50,-5%,2,9,
O=C(NCCc1c[nH]c2ccccc12)c1ccc(Cl)cc1,3.8,·,·,·,-1,
CCCCCOc1ccc(NC2=CC(=O)CCC2)cc1,-2.2,·,·,·,92,
Cc1ccc2nsnc2c1S(=O)(=O)Nc1cccc2nsnc12,8.0,11,-6%,-3,6,
CC(C)N1C(=O)/C(=C\c2nc3ccccc3c(=O)n2-c2ccccc2)c2ccccc21,2.7,-7,19%,-42,-2,
Cc1nc2ccc(NC(=O)c3cccc(S(=O)(=O)N(C)c4ccccc4)c3)cc2s1,9.6,-18,15%,-26,-2,
CC(C)c1ccc(-n2c(O)c(C=NCCN3CCNCC3)c(=O)[nH]c2=S)cc1,-1.8,·,·,·,-4,
COc1ccc(/C=N\NC(=O)c2cccc(F)c2)cc1COc1ccccc1,2.6,·,·,·,-2,
Cc1ccccc1NC(=O)CCc1nnc2ccc(N3CCC4(CC3)OCCO4)nn12,2.6,·,·,·,-6,
Cc1cccc(NC(=S)NNc2ncc(C(F)(F)F)cc2Cl)c1,-0.8,-14,3%,-5,-2,
CCn1cc(Br)c(C(=O)N2CCN(c3ccccc3)CC2)n1,2.6,-23,-6%,5,-2,
COCC(=O)Nc1ccc2nc3n(c(=O)c2c1)CCCCC3,1.6,·,-4%,·,2,
Cc1ccnc(NS(=O)(=O)c2ccccc2)n1,0.3,5,-8%,8,-3,
COc1ccc(NC(=O)COC(=O)C2CCCCC2)c([N+](=O)[O-])c1,1.1,-19,0%,-11,0,
CC(C)C(C(=O)N1CCN(Cc2ccccc2)CC1)c1ccccc1 (stereo not given),2.4,·,·,·,-9,
CC1CCN(C(=O)Cn2c(=O)c3cccn3c3ccccc32)CC1,0.1,·,·,·,-2,
O=c1c2ccccc2nc(-c2ccccc2)n1-c1ccccc1O,-1.3,·,·,·,3,
O=C(COc1ncnc2scc(-c3ccc(Cl)cc3)c12)NCc1ccco1,1.0,-13,7%,-5,92,
Cc1nc2ncnn2c(C)c1CCC(=O)N1CCCCC1,1.1,-2,-9%,-2,4,
O=c1nccc(NCc2ccco2)[nH]1,-0.8,-21,5%,0,-6,
CN(c1ccccc1)S(=O)(=O)c1ccc(NC(=S)NC(=O)c2ccccc2)cc1,1.8,-2,11%,6,15,
COc1ccc2c(c1)O[C@@H](c1cccc(C(F)(F)F)c1)[C@H](OC(=O)NCCc1ccc(OC)c(OC)c1)C2=O,3.0,-28,·,-12,52,

# (further entries)
SMILES,RecA intein inh,YopH inh,Mtb growth,Arbovirus inh,Mtb bLac sens,others
COc1ccc(-c2nn(-c3ccccc3)cc2/C=N/Nc2ccc(S(N)(=O)=O)cc2[N+](=O)[O-])cc1OC,1.3,·,-6%,-16,8,
CC(C)(C)C1CCC(=NNC(=O)C(=O)NC2CCCCC2)CC1 (stereo not given),-1.3,-33,6%,-1,2,
Cc1ccc(-n2nc(C)c3c(C)c(CCC(=O)NCc4ccccc4)c(C)nc32)cc1,-1.1,-54,10%,-3,-4,
O=C(CCc1c[nH]c2ccccc12)NCCc1ccc(Cl)cc1,4.4,·,·,·,0,
O=C1COc2ccc(S(=O)(=O)N3CCc4ccccc43)cc2N1,0.4,·,·,·,-3,
COc1ccc(OC)c(N2C(=O)NC(=O)C3(Cc4cc(C)ccc4N(C)C3)C2=O)c1 (stereo not given),·,-45,-2%,2,-1,
CCNc1nc(NCC)n2c(SCC(=O)Nc3cccc(Cl)c3)nnc2n1,-1.2,·,·,·,-13,
CCOc1ccc(C(CC(=O)O)NS(=O)(=O)c2ccc(C)cc2)cc1OC (stereo not given),·,-2,·,5,-2,
COc1ccc(CN(C(=O)c2cccc(OC)c2)C2CCS(=O)(=O)C2)cc1 (stereo not given),-0.6,·,-1%,·,-4,
COc1cccc(-c2nc(N)nc(SC)c2C#N)c1,-4.1,·,-8%,·,-6,
CN(C)S(=O)(=O)c1cccc(NC(=O)COC(=O)/C=C/c2ccco2)c1,-1.6,-19,-4%,1,4,
COc1ccc(OC)c2c1sc(=NC(=O)c1cccc(N3C(=O)CCC3=O)c1)n2C,2.5,-45,-4%,4,8,
COc1ccccc1N(CC(=O)NCC1CCCO1)C(=O)Cn1nnc(-c2cccs2)n1 (stereo not given),-2.1,·,1%,5,-8,
CCOC(=O)c1sc(NC(=O)c2cc(S(=O)(=O)N3CCOCC3)ccc2C)nc1C,0.7,-37,9%,1,-6,Arbovirus inh repeat=-1
O=C(NNC(=O)c1ccccc1Br)c1ccncc1,0.9,·,·,·,0,
O=C(NCCN1CCN(c2ccccc2)CC1)c1cccn2c(=O)c3ccccc3nc12,-16,-29,6%,-3,-2,
CC1(C)Cc2c(c(N3CCOCC3)nc3sc4c(NCC5CCCO5)nnnc4c23)CS1 (stereo not given),0.4,·,16%,·,37,
Cc1ccc(S(=O)(=O)CCC(=O)NCc2ccccc2Cl)cc1,1.5,-19,3%,-2,-5,
COCCCn1c(SCC(=O)N2CCc3ccccc32)nnc1-c1ccoc1C,-0.5,-170,0%,·,-6,
CCCN(C(=O)c1cc(S(=O)(=O)N2CCCCCC2)ccc1OC)C1CCS(=O)(=O)C1 (stereo not given),-0.2,·,·,·,-1,
COC(=O)c1ccc(C23CC4(C2)[C@H](CN(Cc2ccc(C(F)(F)F)cc2)[C@@H]4c2ccccc2)C3c2ccc(Cl)nc2)cc1 (stereo not given in full),1.4,·,1%,·,7,
Cc1nnc(-c2ccco2)c2cn(-c3cccc(Br)c3)nc12,-1.7,-24,7%,-18,50,
Cc1ccccc1NC(=O)NC1CCS(=O)(=O)C1 (stereo not given),-0.5,·,·,·,12,
COc1ccccc1NC(=O)c1ccccc1C(=O)Nc1ccccc1OC,2.8,·,·,·,-8,
Nc1nc(CSCc2ccccc2)nc(N2CCOCC2)n1,1.0,-29,-7%,-5,-4,
CCO[C@H]1OC(C(=O)O)=C[C@@H](c2ccc3c(c2)OCO3)[C@@H]1CCCO,-0.3,·,-9%,2,-8,

# Some of these compounds in order of molecular weight, lowest first:
SMILES,RecA intein inh,YopH inh,Mtb growth,Arbovirus inh,Mtb bLac sens,others
O=C1CCCN1Cc1ncnn1-c1ccccc1,-0.6,-19,-1%,2,9,
Cc1ccnc(NS(=O)(=O)c2ccccc2)n1,0.3,5,-8%,8,-3,
COc1cccc(-c2nc(N)nc(SC)c2C#N)c1,-4.1,·,-8%,·,-6,
CN(C)CCCNc1ncnc2c1cnn2-c1ccccc1,0.1,-4,12%,0,-9,Arbovirus inh repeat=-5
NC(N)=Nc1nc(-c2ccccc2)c2cc(Cl)ccc2n1,6.9,·,·,·,96,
Nc1nc(CSCc2ccccc2)nc(N2CCOCC2)n1,1.0,-29,-7%,-5,-4,
CCOc1ccccc1C1CC(=O)Nc2cc(OC)c(OC)cc21 (stereo not given),-0.6,·,·,·,3,
O=C1CC(c2ccccc2)CC(O)=C1C=NCc1ccc(Cl)cc1 (stereo not given),-1.4,-50,-5%,2,9,
COc1ccc(/C=N\NC(=O)c2cccc(F)c2)cc1COc1ccccc1,2.6,·,·,·,-2,
O=C(Nc1ccccc1F)Oc1cccc(OC(=O)Nc2ccccc2F)c1,-2.7,·,-13%,·,-5,
COc1ccc(CN(C(=O)c2cccc(OC)c2)C2CCS(=O)(=O)C2)cc1 (stereo not given),-0.6,·,-1%,·,-4,
CCNc1nc(NCC)n2c(SCC(=O)Nc3cccc(Cl)c3)nnc2n1,-1.2,·,·,·,-13,
COc1ccc(OC)c(N2C(=O)NC(=O)C3(Cc4cc(C)ccc4N(C)C3)C2=O)c1 (stereo not given),·,-45,-2%,2,-1,
Cc1nc2ccc(NC(=O)c3cccc(S(=O)(=O)N(C)c4ccccc4)c3)cc2s1,9.6,-18,15%,-26,-2,
CCCN(C(=O)c1cc(S(=O)(=O)N2CCCCCC2)ccc1OC)C1CCS(=O)(=O)C1 (stereo not given),-0.2,·,·,·,-1,
COc1ccc2c(c1)O[C@@H](c1cccc(C(F)(F)F)c1)[C@H](OC(=O)NCCc1ccc(OC)c(OC)c1)C2=O,3.0,-28,·,-12,52,
